Assay outcomes (PubChem BioAssay)
VDR inhibitor: blocks the human vitamin D receptor; VDR-SRC2-3 peptide fluorescence polarization, 2 h; Potency, µM, for the others: max response, negative = inhibition, actives largely listed as inhibitors; hit rate 0.93% among 400,000; AID 504847; active = well fitted inhibition curve with a large enough effect; inconclusive = small, poorly fitted or top-dose-only effect, or another doubt; inactive = no such curve, though single readings can be large or run the other way; also: series mostly up to about 120 µM
Target sequence (P11473 whole entry, looked up): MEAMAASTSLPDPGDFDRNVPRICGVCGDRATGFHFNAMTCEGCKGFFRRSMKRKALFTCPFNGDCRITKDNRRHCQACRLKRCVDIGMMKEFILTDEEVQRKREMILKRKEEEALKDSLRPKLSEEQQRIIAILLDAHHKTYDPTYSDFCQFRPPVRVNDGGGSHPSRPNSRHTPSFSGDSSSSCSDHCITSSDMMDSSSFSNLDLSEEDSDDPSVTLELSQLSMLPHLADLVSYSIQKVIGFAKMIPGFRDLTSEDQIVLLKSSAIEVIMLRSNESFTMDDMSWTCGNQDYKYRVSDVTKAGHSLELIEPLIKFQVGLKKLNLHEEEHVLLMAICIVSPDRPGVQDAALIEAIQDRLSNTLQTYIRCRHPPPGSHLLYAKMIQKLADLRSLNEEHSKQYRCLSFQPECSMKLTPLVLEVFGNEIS
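VDR–SRC2-3 interaction, FP format. Cmpds 23 nl via pintool, brief spin, 2 h ambient incubation.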
* = called active by the depositor; ? = inconclusive; & = joins results of further samples. % is scaled to controls: 0 for no effect and ±100 for the full control effect; potency is read from the fitted curve at half-maximal effect. This is a subset; rates above refer to the full screens.

canonical_smiles | VDR inhibitor
COc1ccccc1OCCCOc1ccc(C)cc1Br | 4%
Cc1nc2ccccn2c1C(=O)/C=C/c1ccc(F)cc1 | 2%
COc1ccc(OC)c(NC(=O)CSc2ccccc2)c1 | -1%
CC(C)[C@@H]1N[C@]2(C(=O)Nc3ccccc32)[C@@H]2C(=O)N(c3cccc(C(F)(F)F)c3)C(=O)[C@@H]21 | 0%
CCOc1cc(Cl)c(NC(=O)CC)cc1OCC | 4%
CC(C)N1CC(O)=C(c2nc3ccccc3c(=O)[nH]2)C1=N | 12%
CCn1c2ccccc2c2cc(NC(=O)CN3CCCC3)ccc21 | -1%
COC(=O)c1ccc([N+](=O)[O-])c(CS(=O)(=O)c2ccc(Cl)cc2)c1 | 9%
OC1(c2ccc3c(c2)OCO3)CCN(Cc2ccc(F)cc2)CC1 | 0%
COCC1CCCN(Cc2nc(-c3ccc4c(c3)OCO4)no2)C1 (centres undefined) | -9%
COc1cccc2c1cc1c(=O)n(CC(=O)O)nc(C)n12 | 0%
CCOC(=O)c1csc(-c2ccc([N+](=O)[O-])cc2)n1 | 20%
c1ccc(Nc2nc(Nc3ccccc3)nc(N3CCNCC3)n2)cc1 | -3%
COc1ccc(NC(=S)NNC(=O)Cn2nc([N+](=O)[O-])cc2C)cc1 | -6%
O=C(O)c1ccccc1NS(=O)(=O)c1ccc(NN=Cc2cccc(Cl)c2)c([N+](=O)[O-])c1 | ?
CC(C)=N/N=C1/NC(=O)C(CC(=O)Nc2cc(Cl)ccc2C)S1 (centres undefined) | -20%
COc1ccc(OC)c(/C=C/C(=O)OCC(=O)Nc2cccc(Oc3ccccc3)c2)c1 | -10%
CCC1CCCCN1C(=S)Nc1ccc(SC(F)F)cc1 (centres undefined) | -28%
COc1ccc(-c2cccc(NC(=O)c3ccco3)c2)nn1 | -8%
Cc1ccc(C)c(N(CC(=O)N2CCCCCC2)S(C)(=O)=O)c1 | 1%
CCc1nnc(NS(=O)(=O)c2ccc(N)cc2)s1 | -21%&16%
CC(=O)COc1cc(C)cc2oc(=O)cc(-c3ccccc3)c12 | 2%
O=C1OC(CCl)CN1Cc1ccc([N+](=O)[O-])cc1 (centres undefined) | -9%
O=C1CCC=C1C(O)c1ccc(Cl)cc1 (centres undefined) | 3%
C=CCCCCCCCCCCC/C=C/C(O)COC(C)=O (centres undefined) | 10%
C=CCNc1nc(C(=O)OCC(=O)c2ccc(OC)cc2OC)cs1 | -5%
CCc1nnc(NC(=O)COC(=O)c2cc(OC)cc(OC)c2)s1 | 12%
CCOC(=O)N1CCN(c2nc3ccc(C(=O)c4ccccc4)cc3n3cnnc23)CC1 | -22%
Cc1ccc(C)c(-c2nnc(NC(=O)COc3ccccc3)o2)c1 | 1%
Cc1ccc(S(=O)(=O)NCCc2ccncc2)cc1 | 15%
O=C(Oc1nsnc1N1CCOCC1)N1CCCCC1 | -7%
COc1ccccc1OCCCC(=O)Nc1ccc2c(c1)OCCO2 | -3%
CC1(C(=O)NC2CCCCC2)CCC(=O)N1Cc1cccnc1 (centres undefined) | -4%
COCc1nnc(NC(=O)CCC2CCCCC2)s1 | 8%
CC(=O)/C=C(\C)Nc1c(C)n(C)n(-c2ccccc2)c1=O | -14%
O=C(Nc1ccc(OC(F)(F)F)cc1)c1nc2ccccc2nc1N1CCCCC1 | 2%
COc1ccc(C(C(=O)NC2CCCCC2)N(CC2CCCO2)C(=O)CNC(=O)c2ccco2)cc1 (centres undefined) | -12%
Cc1ccc(S(=O)(=O)N2CCCCC2CCNC(=O)C(=O)NCCc2ccco2)cc1 (centres undefined) | -15%
Cc1cc(OCc2cccc(Cl)c2)c(C)cc1CN1CCOCC1 | 8%
CCN(CC(=O)N1CCCCC1)S(=O)(=O)c1ccccc1 | -9%
CCOc1ccc(CNC(=O)C2CCCCN2S(=O)(=O)c2ccc(F)cc2)cc1OC (centres undefined) | -5%
Cc1ccc(C)c(-n2c(-c3csc(C)c3C)n[nH]c2=S)c1 | -10%
COCCNC(=O)c1ccc(NC(=O)C2(c3ccccc3)CCCC2)cc1 | -4%
CC1Cc2ccccc2N1C(=O)CSc1nnc2sc3ccccc3n12 (centres undefined) | -12%
CSCCC1NC(=O)C(C(C)=NNC(N)=O)=C1O (centres undefined) | -6%
COc1ccc(NC(=O)C(NC(=O)Cc2cccs2)c2ccccc2)cc1 (centres undefined) | -7%
COc1ccc(C)cc1S(=O)(=O)Nc1cccc(-c2ccc(N3CCCCCC3)nn2)c1 | ?
CC(=O)Nc1ccc(OC(=O)c2cc3cc(Br)ccc3oc2=O)cc1 | -6%
COc1cc2[nH]c(=S)nc(NCc3cccs3)c2cc1OC | 1%
O=C(COC(=O)c1ccc(S(=O)(=O)N2CCCC2)cc1)Nc1cccnc1Cl | 6%

Gathered by group: the compounds so far with a furan ring, fused or not.
canonical_smiles | VDR inhibitor
COc1ccc(-c2cccc(NC(=O)c3ccco3)c2)nn1 | -8%
COc1ccc(C(C(=O)NC2CCCCC2)N(CC2CCCO2)C(=O)CNC(=O)c2ccco2)cc1 (centres undefined) | -12%
Cc1ccc(S(=O)(=O)N2CCCCC2CCNC(=O)C(=O)NCCc2ccco2)cc1 (centres undefined) | -15%

Reprinted at random: 2 entries already listed, in no set order.
canonical_smiles | VDR inhibitor
Cc1ccc(S(=O)(=O)N2CCCCC2CCNC(=O)C(=O)NCCc2ccco2)cc1 (centres undefined) | -15%
Cc1ccc(S(=O)(=O)NCCc2ccncc2)cc1 | 15%

Another view of 5 compounds above.
VDR inhibitor	compound
-22%	CCOC(=O)N1CCN(c2nc3ccc(C(=O)c4ccccc4)cc3n3cnnc23)CC1
1%	Cc1ccc(C)c(-c2nnc(NC(=O)COc3ccccc3)o2)c1
15%	Cc1ccc(S(=O)(=O)NCCc2ccncc2)cc1
-7%	O=C(Oc1nsnc1N1CCOCC1)N1CCCCC1
-3%	COc1ccccc1OCCCC(=O)Nc1ccc2c(c1)OCCO2

Next entries follow:
canonical_smiles | VDR inhibitor
CCOc1ccc(Oc2ccc(C(F)(F)F)cc2N)cc1 | -5%
COc1ncc2ncc(=O)n(C[C@H]3CCCO3)c2n1 | 5%
COc1ccc(-c2cn(-c3ccc(C)cc3)c(=O)n2CC(=O)Nc2ccc(OC)cc2OC)cc1 | 11%
CC1=Nn2c(nnc2-c2cccs2)SC1 | 10%
CCc1ccc(OCC(O)CN2CCCC2)cc1 (centres undefined) | 3%
CCOc1ccc(NC(=O)CSc2nc(-c3cccs3)cc(C(F)(F)F)c2C#N)cc1 | -19%
COc1ccc(-c2[nH]ncc2CN(C)Cc2c(C)n[nH]c2C)c(OC)c1 | -13%
Cc1oc(-c2cccs2)nc1CN1CCN(C2CCCC2)C(CCO)C1 (centres undefined) | 13%
COc1ccc(S(=O)(=O)NC(CC(=O)NCc2ccccc2OC)c2ccco2)cc1 (centres undefined) | 5%
COc1ccc(C2=CCC3CCCCN3C2)cc1OC (centres undefined) | -2%
CCCCC1=CC2=CC(=O)C(C)(OC(=O)CC)C(=O)C2=CN1CCc1c[nH]c2ccccc12 (centres undefined) | -26%
CCOC(=O)N1CCC(N2Cc3cccc(C(=O)Nc4ccc(N(CC)CC)cc4C)c3C2=O)CC1 | -4%
COc1cccc(CC2CC(=O)N(c3ccc4c(C)cc(=O)oc4c3)C2=O)c1 (centres undefined) | -15%
O=C(Nc1ccc(Cl)cc1)Nc1nnc(Cc2ccc([N+](=O)[O-])cc2)s1 | 15%
Cc1ccc(C(=O)Nc2cccc3cccnc23)cc1Br | -11%
O=C(COC(=O)CNC(=O)c1ccco1)Nc1ccc(F)cc1 | 1%
CCOC(=O)c1c(NC(=O)CN2C(=O)c3ccccc3C2=O)sc(Cc2ccc3c(c2)OCO3)c1C | -22%
COc1cccc(-c2ccc(C#N)c(OC(=O)c3ccc(Cl)cc3)n2)c1 | 10%
COCCSc1nnc(NC(=O)C2CCCO2)s1 (centres undefined) | 12%
CCOc1ncccc1C(=O)Nc1ccc(S(=O)(=O)Nc2nc(C)cc(C)n2)cc1 | 7%
C/C(N)=C(/C#N)C(=O)CSc1cc(C)c2cc(C)cc(C)c2n1 | 8%
CC(C)CNC(=O)CN1C(=O)NC(Cc2c[nH]c3ccccc23)C1=O (centres undefined) | -10%
Cc1noc(NC(=O)c2ccc(Cl)cc2)c1Cl | -6%
O=C1C=C(NCc2ccc(Cl)cc2)CC(c2ccco2)C1 (centres undefined) | 2%
Cn1cccc1/C=C1\SC(=O)N(CC(=O)Nc2ccc(F)cc2)C1=O | 5%

Three entries out of the list, arranged by heavy-atom count, descending:
canonical_smiles | VDR inhibitor
CCCCC1=CC2=CC(=O)C(C)(OC(=O)CC)C(=O)C2=CN1CCc1c[nH]c2ccccc12 (centres undefined) | -26%
Cn1cccc1/C=C1\SC(=O)N(CC(=O)Nc2ccc(F)cc2)C1=O | 5%
COc1ncc2ncc(=O)n(C[C@H]3CCCO3)c2n1 | 5%

The list goes on.
canonical_smiles | VDR inhibitor
COc1ccc(S(=O)(=O)N(C)CC(=O)Nc2ccccc2OC)cc1 | -4%
C/C(=N\NC(=O)CSc1nc2ccccc2c(=O)n1-c1ccccc1C)c1cccs1 | -15%
Cc1c(C#N)c2ccccc2n1CC(=O)NCc1cccnc1 | -15%
Nc1cc(S(=O)(=O)N2CCOCC2)ccc1Oc1ccc(F)cc1 | 2%
CSc1nnc(-c2ccccc2Cl)o1 | -4%
Cc1ccc(C)c(NC(=O)CN(C)C(=O)[C@@H](NC(N)=O)C(C)C)c1 | 5%
O=C(Nc1cccc(Br)c1)c1ccc2nc(N3C(=O)CCC3=O)sc2c1 | 9%
CCOC(=O)N1CCN(C(=O)COc2ccc(S(=O)(=O)NCC(C)C)cc2C)CC1 | 9%
Cc1ccc(S(=O)C(c2ccccc2)c2ccccc2)cc1 (centres undefined) | 0%
O=C(/C=C/c1ccc(Br)cc1)NCCCn1ccnc1 | -12%
CN1CC2=Cc3ccccc3OC23Oc2ccccc2C=C3C1 | -29%
CNC(=O)c1ccc(OCc2ccccc2)c(OC)c1 | -11%
CN(C)/C=C1\C(=O)NN=C1c1ccccc1 | 29%
COc1ccc(CCNC(=O)C2CCN(S(=O)(=O)c3ccc(C)cc3)CC2)cc1OC | 6%
CSCC[C@H](N)C(=O)N1CCC(C(=O)N[C@H](C(=O)NCc2ccccc2F)C(C)C)CC1 | -16%
CCC(C)NC(=O)COC(=O)Cc1sc(N)nc1-c1ccc(C)cc1 (centres undefined) | 7%
C/C(=N\NC(=O)CCC(=O)O)c1c(-c2ccccc2)c2cc(Br)ccc2[nH]c1=O | -20%
CCOc1ccc(NC(=S)NNC(=S)Nc2cccc(C(F)(F)F)c2)cc1 | -7%
CCn1cc(S(=O)(=O)NCc2ccccc2Br)cn1 | -10%
CN(Cc1ccco1)c1nc(-c2ccccc2C(F)(F)F)nc2ccccc12 | 35µM*
O=C(NC1CC2CCCC(C1)N2C(=O)N1CCCCC1)C1CCCCC1 (centres undefined) | -16%
Nc1cnn(C2OC(CO)C(O)C2O)c(=O)n1 (centres undefined) | -6%
COc1ccccc1N1CCN(C(=O)NCc2ccc(Cl)cc2)CC1 | -7%
Cc1cc(CNC(=O)Cn2nc(C)c([N+](=O)[O-])c2C)c2ccccc2n1 | 1%
CCCN(CC(=O)Nc1ccccc1C)C(=O)c1oc2ccc(OCC)cc2c1C | -26%
COc1ccccc1-c1ccc2ncnc(NCc3cccnc3)c2c1 | 1%
O=[N+]([O-])c1ccc(N2CCNCC2)cc1Sc1nc2ccccc2[nH]1 | -9%
Cc1ccc(S(=O)(=O)N2CCCC2)cc1C(=O)NCCOc1ccccc1 | -2%
COc1ccc(C(C(=O)NCc2ccccc2)N(Cc2cccnc2)C(=O)c2snc(C(N)=O)c2N)cc1OC (centres undefined) | 2%
N/C(=N\OC(=O)C12CC3CC(CC(C3)C1)C2)c1ccccn1 | -14%
Cc1cc(=O)cc2oc3cc(N)c(-c4c(C)cc(O)cc4O)c(C)c3nc1-2 | ?
COc1ccc(/C=C(/NC(=O)c2ccccc2)C(=O)N2CCC(C)CC2)cc1 | 8%
Cc1ccc(-n2ncc3c(N4CCCCC4)ncnc32)cc1 | 11%
O=C(Cc1ccc([N+](=O)[O-])cc1)N1CCCc2ccccc21 | 3%
O=C(Nc1ccc(S(=O)(=O)NCc2cccnc2)cc1)c1ccco1 | 11%
CCN(CC)c1ccc(/C=N/NS(=O)(=O)c2cccc([N+](=O)[O-])c2)cc1 | -27%
NS(=O)(=O)c1ccc(CCN=Cc2ccccc2O)cc1 | -10%
Cc1cnc(C(=O)N2CCCC(C(=O)c3ccc(C(F)(F)F)cc3)C2)cn1 (centres undefined) | -11%
N#CC1C(=O)NC(=O)CC12CCCCC2 (centres undefined) | 4%
Cc1noc(C)c1COC(=O)c1cc(S(=O)(=O)N2CCOCC2)ccc1Cl | -3%
COc1ccc(/C=N/NC(=O)c2ccccc2)cc1CN1CCN(c2ccc(F)cc2)CC1 | -2%
Cc1oc(-c2ccccc2F)nc1CS(=O)CC(=O)NC1CCCCC1 (centres undefined) | -18%
COc1ccc(Nc2nc3c(S(=O)(=O)c4ccccc4)nnn3c3ccc(Cl)cc23)cc1OC | -9%
O=C(O)C1CCCC[C@H]1C(=O)Nc1ncc([N+](=O)[O-])s1 (some centres undefined) | -13%
Cc1cccc(C)c1-n1ncc(C(=O)N2CCN(c3ccccn3)CC2)c1C1CCN(C(=O)OC(C)(C)C)CC1 | -3%
COc1ccc(CN2CCc3nc(N4CCN(c5ccc(F)cc5)CC4)ncc3C2)c(OC)c1OC | 4%
CCc1ccc2[nH]c(=O)c(CN(Cc3nnnn3C3CCCC3)C3CCCCC3)cc2c1 | 1%
CCc1cc(OCCOCCN(C)C)ccc1Cl | -6%
Cc1cc(C)nc(SCc2nnc(SCC(=O)OC3CCCCC3)o2)n1 | -3%
CN(C)c1nc(-c2ccoc2)nc2ccccc12 | ?
